Six1-Eya2 inh: Six1/Eya2 interaction inhibition; Q15475+O00167; AlphaScreen GST-Six1/His-Eya2 binding, biochemical; active compounds read low; control for the full effect not named in the record; activity change, % (no concentration beside the values); hit rate 0.56% among 360,000; in the data active = activity change below about -65%; inconclusive = about -30% to -65%; inactive = above about -30%; note: % is set by controls: 0 for no effect and ±100 for the full control effect
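Compounds are tested against tagged Six1 and Eya2 proteins bridged by glutathione donor and nickel acceptor beads; after a one-hour incubation at 37 °C without light, AlphaScreen emission is recorded.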
D2 agonist: activates the human D2 dopamine receptor | activation, % (test concentration not listed) | hit rate 0.084% among 360,000 | DiscoveRx PathHunter D2 beta-arrestin, luminescence, 90 min; 100% = 57 uM dopamine signal | P14416 | AID 624465; in the data active = activation above about 40%; inconclusive = about 15% to 40%; inactive = below about 15%; note: compound concentration not given in the record; the text of the record calls up to 30% inactive
Target sequence (P14416 whole entry, looked up): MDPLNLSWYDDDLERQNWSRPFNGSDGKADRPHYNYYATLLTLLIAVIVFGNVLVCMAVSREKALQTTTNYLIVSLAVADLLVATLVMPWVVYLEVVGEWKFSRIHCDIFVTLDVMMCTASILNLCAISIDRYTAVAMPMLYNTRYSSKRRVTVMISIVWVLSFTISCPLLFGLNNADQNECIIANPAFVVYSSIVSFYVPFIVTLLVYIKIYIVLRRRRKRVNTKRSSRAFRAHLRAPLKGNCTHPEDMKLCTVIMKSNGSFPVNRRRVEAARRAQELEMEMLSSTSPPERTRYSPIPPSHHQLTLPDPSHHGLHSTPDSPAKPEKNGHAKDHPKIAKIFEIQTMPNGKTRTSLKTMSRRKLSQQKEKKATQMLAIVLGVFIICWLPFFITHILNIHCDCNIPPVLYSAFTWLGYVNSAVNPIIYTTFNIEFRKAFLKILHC
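DiscoveRx PathHunter D2 beta-arrestin cells (2,100/well) attached overnight, then compound-stimulated 90 min at 37 C in HBSS/10 mM HEPES/0.1% Tween-20 buffer; beta-galactosidase complementation read by luminescence after 1 h at ambient temperature. Dopamine 57 uM final (EC100) as control.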
TRPML1 inh: inhibitors of human TRPML1 channel; activity change, negative = inhibition, % (concentration not given with the values); TRPML1-inducible cells, Ca2+ dye fluorescence, FDSS; active compounds read low; inhibition of EC80 agonist-evoked calcium signal; hit rate 0.02% among 390,000; Q9GZU1; AID 624415; in the data active means activity change below about -50%; inconclusive means about -30% to -50%; inactive means above about -30%;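 note: stimulus is agonist 54-4 at its EC80 concentration; % is set by controls: 0 for no effect and ±100 for the full control effect; the text of the record puts the active cut at -80%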
Target sequence (Q9GZU1 whole entry, looked up): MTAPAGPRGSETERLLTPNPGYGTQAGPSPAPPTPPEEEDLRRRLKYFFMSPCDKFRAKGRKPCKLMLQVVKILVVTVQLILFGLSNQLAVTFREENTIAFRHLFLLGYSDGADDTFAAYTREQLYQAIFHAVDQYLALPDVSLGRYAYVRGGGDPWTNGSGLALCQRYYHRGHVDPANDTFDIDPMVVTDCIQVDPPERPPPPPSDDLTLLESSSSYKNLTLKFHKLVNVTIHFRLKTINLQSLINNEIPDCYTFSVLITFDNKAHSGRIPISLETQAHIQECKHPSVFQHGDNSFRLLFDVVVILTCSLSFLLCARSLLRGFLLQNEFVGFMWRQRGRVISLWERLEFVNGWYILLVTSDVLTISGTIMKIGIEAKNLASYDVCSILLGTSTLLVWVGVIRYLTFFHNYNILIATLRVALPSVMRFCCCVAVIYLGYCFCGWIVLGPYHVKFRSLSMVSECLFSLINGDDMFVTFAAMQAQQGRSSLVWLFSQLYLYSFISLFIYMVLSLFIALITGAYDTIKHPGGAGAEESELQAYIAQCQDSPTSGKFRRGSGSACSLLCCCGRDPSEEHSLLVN
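Tet-induced TRPML1-DL cells loaded with Ca8 no-wash calcium dye were read kinetically on FDSS. Compound addition was followed by EC80 agonist 54-4 (4 uM final); inhibition was read over 110 s.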
TRPML1 ag: agonists of human TRPML1 channel; Q9GZU1; TRPML1-expressing cells, Ca2+ dye fluorescence, FDSS; host cell line not named in the record; reference of the full effect not given here; activation, % (no concentration beside the values); hit rate 0.12% among 410,000; AID 624414; in the data active = activation above about 50%; inconclusive = about 30% to 50%; inactive = below about 30%; note: 0% is about no effect; the text of the record puts the active cut at 80%
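Cells: TRPML1-DL, 1X Tet inducer, ~16 h at 37 degrees C/5% CO2. Dye: ABD Ca8 no-wash + quencher, 45-90 min RT. Read: 10 s baseline, compound add, 110 s agonist phase; 54-4 EC80 (4uM final), 110 s antagonist phase.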
CtBP-E1A inh: CtBP/E1A binding inhibition | AlphaScreen GST-E1A/His-CtBP binding, 1536-well; active compounds read low; control for the full effect not named in the record | activity change, % (concentration not given with the values) | hit rate 0.49% among 340,000 | AID 651724; in the data active means activity change below about -65%; inconclusive means about -30% to -65%; inactive means above about -30%; note: % is set by controls: 0 for no effect and ±100 for the full control effect
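AlphaScreen with 125 nM GST-E1A and 125 nM His-CtBP (5X stocks) in Tris pH 8.0, 300 mM NaCl, BSA, Tween 20, TCEP. Compounds preincubated 2 h at 37 deg C, then glutathione donor/nickel acceptor beads added for 1 h at 37 deg C in dark.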
PINK1 modulator: PINK1 expression modulation | AID 624263 | PINK1 immunofluorescence, high-content cytometry, 24 h | hit rate 0.2% among 410,000 | Potency, µM (titrated, usually from 76.6 µM), inactives show at the top dose activation (PINK1 increase), usual class: activators; active = well fitted activation curve with a large enough effect; inconclusive = small, poorly fitted or top-dose-only effect; inactive = flat fitted curve, though single readings scatter; cell line not stated here;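 note: potency is the fitted concentration of half-maximal effect; % of control where 0% means no effect; nearly all actives have a fitted effect of over 65% in size; a mitochondrial uncoupler was the plate control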
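Fluorescence from anti-PINK1 antibody, together with nuclear and cell stains, was scanned on a laser-scanning cytometer. Before staining, stable-line cells were incubated 24 hours with compounds at 5 concentrations; primary antibody 12 h at 10 degrees C.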
* = called active by the depositor; & = joins results of further samples; [ ] = dose if it differs, or a comment. Not a hit list (roughly 1% active in at least one column).

`O=[N+]([O-])c1cccc(-c2nc(-c3ccccc3)c(-c3cccs3)[nH]2)c1` gave Six1-Eya2 inh 3, D2 agonist -1.3, TRPML1 inh -4, TRPML1 ag -1.0, CtBP-E1A inh -1 and PINK1 modulator 5.1%.
`CC(=O)Nc1ccc(S(=O)(=O)Nc2ccc(=O)n(Cc3ccc(Cl)c(Cl)c3)c2)cc1` gave Six1-Eya2 inh -9, D2 agonist -3.4, TRPML1 inh -10, TRPML1 ag -0.8 and PINK1 modulator 0.1%.
For COc1cc(OC)cc(C(=O)Nc2ccc(CN3CCCCC3)cc2)c1 the results were Six1-Eya2 inh 4, D2 agonist -3.4, TRPML1 inh -18, TRPML1 ag -0.6, CtBP-E1A inh 3 and PINK1 modulator -0.7%.
Screening Cc1cccc(OCC(=O)NCc2nc(-c3ccccc3)no2)c1 returned Six1-Eya2 inh 0, D2 agonist -3.3, TRPML1 inh -7, TRPML1 ag 0.8, CtBP-E1A inh -9 and PINK1 modulator -0.1%.
CC(=O)C(Cc1ccccc1)NC(=O)COc1ccc2c(c1)OCO2 (stereo not given) was read as Six1-Eya2 inh 1, D2 agonist 1.8, TRPML1 inh 14, TRPML1 ag -0.9, CtBP-E1A inh 1 and PINK1 modulator -1.5%.
`C=CCSc1nc2ccccc2c(=O)[nH]1` gave Six1-Eya2 inh 1, D2 agonist 0.0, TRPML1 inh 2, TRPML1 ag -0.6, CtBP-E1A inh 7 and PINK1 modulator 0.1%.
For Cc1c(C(=O)Nc2ccc(F)cc2)sc2ncn(CC(=O)N3CCCCC3)c(=O)c12 the results were Six1-Eya2 inh -1, D2 agonist 3.8, TRPML1 inh -5, TRPML1 ag -0.3 and PINK1 modulator 0.9%.
`Cc1cc(/C(N)=N/OC(=O)c2ccc(Cl)cc2)no1` gave Six1-Eya2 inh 7, D2 agonist 2.4, TRPML1 inh 27, TRPML1 ag 0.5, CtBP-E1A inh 5 and PINK1 modulator 0.2%.
O=C(c1ccccc1-n1cccc1)N1N=C(C(F)F)CC1(O)C(F)F (stereo not given) was read as Six1-Eya2 inh -16, D2 agonist -3.6, TRPML1 inh -8, TRPML1 ag -0.6, CtBP-E1A inh -9 and PINK1 modulator 1.3%.
For O=[N+]([O-])c1ccc(CS(=O)Cc2ccccc2)cc1 (stereo not given) the results were Six1-Eya2 inh 1, D2 agonist 1.5, TRPML1 inh -19, TRPML1 ag -0.3, CtBP-E1A inh 3 and PINK1 modulator -4.9%.
Screening Cc1ccc(NC(=O)CC[C@H]2O[C@@H](n3cnc4c(NC(=O)c5ccccc5)ncnc43)[C@H](O)[C@@H]2O)cc1C returned Six1-Eya2 inh -1, D2 agonist 0.9, TRPML1 ag -0.8, CtBP-E1A inh 5 and PINK1 modulator 9.1%.
`CCCc1nc(NCCCOCC)c2nnn(Cc3ccccc3)c2n1` gave Six1-Eya2 inh 4, D2 agonist 12, TRPML1 inh 16, TRPML1 ag -0.8 and PINK1 modulator 6.4%.
`Cc1cc2cccc(C)c2nc1SCC(=O)NCC1CCCO1` (stereo not given) gave Six1-Eya2 inh -1, D2 agonist -3.3, TRPML1 inh -8, TRPML1 ag 3.0, CtBP-E1A inh 1 and PINK1 modulator 0.7%.
Cc1c(NC(=O)COC(=O)c2ccc(O)cc2)c(=O)n(-c2ccccc2)n1C was read as Six1-Eya2 inh -8, D2 agonist 1.7, TRPML1 inh -14, TRPML1 ag 0.1, CtBP-E1A inh -11 and PINK1 modulator -0.2%.
For CCCCc1ccc(S(=O)(=O)Nc2nnc(C)s2)cc1 the results were Six1-Eya2 inh -4, D2 agonist -2.7, TRPML1 inh -5, TRPML1 ag -0.7 and PINK1 modulator 4.0%.
Screening O=c1c(Cc2ccc(F)cc2)c(O)ccn1CCc1ccccn1 returned Six1-Eya2 inh 7, D2 agonist -4.4, TRPML1 inh 4, TRPML1 ag -0.4, CtBP-E1A inh 4 and PINK1 modulator 1.5%.
Screening COc1cccc(CNC(=O)C2CCN(C(=O)N3CC(C)Oc4ccccc43)CC2)c1 (stereo not given) returned Six1-Eya2 inh 3, D2 agonist -5.6, TRPML1 inh 20, TRPML1 ag 0.3, CtBP-E1A inh 5 and PINK1 modulator 0.5%.
`CCCCN1C(=O)C(CC(=O)NC2CCCCC2)CC(C(=O)N2CCOCC2)=C1C` (stereo not given) gave Six1-Eya2 inh -1, D2 agonist -3.6, TRPML1 inh 7, TRPML1 ag -0.5, CtBP-E1A inh 8 and PINK1 modulator 11%.
`O=[N+]([O-])c1ccc(O)c(/C=N/NC2=NS(=O)(=O)c3ccccc32)c1` gave Six1-Eya2 inh -70*, D2 agonist 11, TRPML1 inh 0, TRPML1 ag 3.6, CtBP-E1A inh -70* and PINK1 modulator 1.4%.
O=C(Cn1c(=S)[nH]c2ccccc2c1=O)NCCc1ccccc1 was read as Six1-Eya2 inh 4, D2 agonist -7.4, TRPML1 inh 10, TRPML1 ag -1.6, CtBP-E1A inh -11 and PINK1 modulator 1.8%.

Reprinted from the part before: two entries, then new ones.
`O=[N+]([O-])c1ccc(O)c(/C=N/NC2=NS(=O)(=O)c3ccccc32)c1` gave Six1-Eya2 inh -70*, D2 agonist 11, TRPML1 inh 0, TRPML1 ag 3.6, CtBP-E1A inh -70* and PINK1 modulator 1.4%.
O=C(Cn1c(=S)[nH]c2ccccc2c1=O)NCCc1ccccc1 was read as Six1-Eya2 inh 4, D2 agonist -7.4, TRPML1 inh 10, TRPML1 ag -1.6, CtBP-E1A inh -11 and PINK1 modulator 1.8%.
Screening Cc1ccc(C)c(CNC(=O)C2CCN(c3nc4ccccc4nc3C(F)(F)F)CC2)c1 returned TRPML1 inh 17, TRPML1 ag -0.4 and PINK1 modulator -0.2%.
`COC(=O)c1ccccc1NC(=O)CSc1n[nH]c(C)n1` gave Six1-Eya2 inh -1, D2 agonist -1.7, TRPML1 inh -12&1, TRPML1 ag -1.1&-0.7, CtBP-E1A inh 0 and PINK1 modulator 0.1%&-2.0%.
For CCN1C(=NCCN2CCOCC2)N[C@@H](c2ccccc2)C(C(=O)OC)=C1C the results were Six1-Eya2 inh -5, D2 agonist -4.0, TRPML1 inh -12, TRPML1 ag -0.4, CtBP-E1A inh -9 and PINK1 modulator 1.6%.
For CCOc1cc(N2CCOCC2)c(OCC)cc1NS(=O)(=O)c1cc(NC(C)=O)ccc1OC the results were Six1-Eya2 inh -4, D2 agonist 0.3, TRPML1 inh 6, TRPML1 ag -0.4, CtBP-E1A inh -4 and PINK1 modulator 2.5%.
O=C(Nc1ccc(Br)c(Cl)c1)C1CC1 was read as Six1-Eya2 inh 8, D2 agonist 0.1, TRPML1 inh -12, TRPML1 ag 0.8, CtBP-E1A inh 0 and PINK1 modulator 0.7%.
Screening Cc1ccccc1NC(=S)NC1CCN(Cc2ccccc2)CC1 returned Six1-Eya2 inh -4, D2 agonist -1.0, TRPML1 inh 18, TRPML1 ag 1.3, CtBP-E1A inh -4 and PINK1 modulator -0.5%.
For CCc1c(C)sc(NC(=O)OC)c1C(=O)N1CCOCC1 the results were Six1-Eya2 inh 6, D2 agonist -0.7, TRPML1 inh 32, TRPML1 ag 0.0, CtBP-E1A inh 11 and PINK1 modulator inconclusive.
For CCOC(=O)CSc1nc(C)c(Oc2ccc(Cl)cc2Cl)c(=O)[nH]1 the results were Six1-Eya2 inh -8, D2 agonist 0.4, TRPML1 inh 28, TRPML1 ag 1.3, CtBP-E1A inh -12 and PINK1 modulator 0.1%.
Screening O=C(Nc1cc(Cl)ccc1Oc1ccccc1)c1ccc(F)cc1 returned Six1-Eya2 inh 38, D2 agonist -0.4, TRPML1 inh 30, TRPML1 ag 7.4, CtBP-E1A inh 71 and PINK1 modulator 3.9%.
`CCn1ccnc1[C@@H]1C[C@H]2CN(c3ccccc3OC)C(=O)[C@]23CCCN13` gave Six1-Eya2 inh -6, D2 agonist 1.2, TRPML1 inh 5, TRPML1 ag 0.0, CtBP-E1A inh 7 and PINK1 modulator -0.8%.
For O=c1cc(CN2CCN(c3ccc(F)cc3)CC2)nc2sccn12 the results were Six1-Eya2 inh 5, D2 agonist -0.1, TRPML1 inh -12, TRPML1 ag 2.3, CtBP-E1A inh 1 and PINK1 modulator -1.6%.
`C=CCNC(=O)NC(=O)COC(=O)/C(C#N)=C/c1cc(C)n(CCC(C)C)c1C` gave Six1-Eya2 inh 0, D2 agonist -1.6, TRPML1 inh 13, TRPML1 ag -0.1, CtBP-E1A inh -2 and PINK1 modulator 27%[38.3 µM].
`CCOc1ccc(NC(=O)c2cccc(OC(=S)N3CCOCC3)c2)cc1` gave Six1-Eya2 inh 13, D2 agonist 4.7, TRPML1 inh -1, TRPML1 ag -0.1 and PINK1 modulator 3.5%.
For COc1ccc(CCNC(=O)CCCN2C(=O)c3ccccc3C2=O)cc1 the results were Six1-Eya2 inh 3, D2 agonist 5.2, TRPML1 inh 7, TRPML1 ag 0.9, CtBP-E1A inh -1 and PINK1 modulator 0.3%.
Screening CCc1nc2ccc(C(=O)NCc3cccs3)cn2c1N(CC)Cc1cccc(Br)c1 returned Six1-Eya2 inh -6, D2 agonist -3.9, TRPML1 ag -0.8, CtBP-E1A inh -4 and PINK1 modulator inconclusive.
For Cn1c(COc2ccc(Cl)cc2)nnc1SCC(=O)NC1CCCCC1 the results were Six1-Eya2 inh 6, D2 agonist -2.0, TRPML1 inh -4, TRPML1 ag 0.6, CtBP-E1A inh 3 and PINK1 modulator -0.5%[38.3 µM].
For COc1cc(NC(=O)CC2C(=O)N(c3ccccc3)C(=O)N2Cc2ccc(F)cc2)cc(OC)c1 (stereo not given) the results were TRPML1 inh -14, TRPML1 ag -0.5 and PINK1 modulator -0.1%.
O=C(COc1cccc(C(F)(F)F)c1)Nc1ccc(S(=O)(=O)N2CCCC2)cc1 was read as Six1-Eya2 inh -1, D2 agonist -1.7, TRPML1 inh -9, TRPML1 ag 1.8, CtBP-E1A inh 10 and PINK1 modulator 5.7%[38.3 µM].
`Cc1oc(-c2ccccc2)nc1CS(=O)CC(=O)NC1CCCC1` (stereo not given) gave Six1-Eya2 inh 1, D2 agonist -5.8, TRPML1 inh 10, TRPML1 ag -0.4, CtBP-E1A inh 2 and PINK1 modulator -0.7%.
Screening Cc1ccc(-c2nc3ncccc3n2O)cc1 returned Six1-Eya2 inh 1, D2 agonist 9.9, TRPML1 inh -15, TRPML1 ag 0.3 and PINK1 modulator 0.8%.
For CCOC(=O)C1CCN(Cc2cc(C(C)C)c(O)c(C(C)C)c2)CC1 the results were Six1-Eya2 inh -1, D2 agonist -13, TRPML1 inh 4, TRPML1 ag 0.5, CtBP-E1A inh 1 and PINK1 modulator -0.4%.
`Cn1cc(-c2cccc3nncn23)cn1` gave Six1-Eya2 inh 2, D2 agonist 3.3, TRPML1 ag -0.4, CtBP-E1A inh 6 and PINK1 modulator -0.3%.
`Cc1nc(SCC(=O)Nc2cc(S(=O)(=O)N3CCOCC3)ccc2Cl)nc(C)c1C` gave Six1-Eya2 inh -2, D2 agonist -1.1, TRPML1 inh -14, TRPML1 ag 1.0, CtBP-E1A inh -24 and PINK1 modulator -0.6%.
